From PubChem
GLA inh pH 4.5 – alpha-galactosidase A (human) inhibition, pH 4.5 | P06280 | purified enzyme, 4-MU-alpha-Gal fluorescence, pH 4.5 | activity change, negative = inhibition, % at 105 µM | 230,000 tested, under 10 active | AID 1467; inconclusive = small, poorly fitted or top-dose-only inhibition, or a rising curve; inactive = flat fitted curve, though single readings scatter; no compound was filed as active;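 note: 0% = full activity with enzyme and -100% = basal without enzyme; dose as in the result columns while the protocol names 77 µM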
Target sequence (P06280 whole entry, looked up): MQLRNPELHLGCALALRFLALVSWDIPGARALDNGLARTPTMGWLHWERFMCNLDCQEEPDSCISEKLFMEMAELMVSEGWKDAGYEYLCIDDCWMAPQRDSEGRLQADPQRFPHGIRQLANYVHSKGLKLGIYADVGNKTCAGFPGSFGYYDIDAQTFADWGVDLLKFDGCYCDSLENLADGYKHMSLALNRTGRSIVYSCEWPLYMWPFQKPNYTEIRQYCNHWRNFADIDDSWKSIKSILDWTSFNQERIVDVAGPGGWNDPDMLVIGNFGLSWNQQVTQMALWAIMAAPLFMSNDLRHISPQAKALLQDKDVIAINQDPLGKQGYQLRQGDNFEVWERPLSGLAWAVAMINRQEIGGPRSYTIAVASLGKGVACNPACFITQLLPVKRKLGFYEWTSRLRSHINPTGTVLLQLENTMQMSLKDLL
miR-21 FLuc – raises the signal of a miR-21 reporter; Potency, µM (doses to about 38.3 µM), without a hit: at the top dose reporter change, positive = more light; HeLa miR-21 FLuc reporter, luciferase, 48 h; 340,000 tested, under 10 active; active = well fitted rising curve with a large enough effect; inconclusive = small, poorly fitted or top-dose-only effect; inactive = no such curve, though single readings can be large or run the other way;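 note: % of control where 0% means no effect; miR-21 action dims this reporter so a rising signal means less miR-21 action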
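Using DMEM plus 10% FBS, HeLa miR-21-FLuc cells are incubated with test compounds (final up to about 40uM) for 48 hours; firefly luciferase signal is then imaged following reagent-mediated lysis.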
Rango-impB inh – inhibitors of Rango-importin beta complex formation; Q14974; Rango CFP/YFP FRET sensor + importin beta, 45 min; Potency, µM (series often up to 92.2 µM), for inactives: top-dose inhibition of complex formation; 340,000 tested, 0.031% active; AID 540263; active = rising FRET ratio curve, often small or poorly fitted; inconclusive = mostly compound fluorescence or quenching in the first reads; inactive = flat curves in all reads;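 note: potency is the fitted concentration of half-maximal effect; 0% = DMSO wells and 100% = buffer wells lacking importin beta; nearly all actives have a fitted effect of over 15% in size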
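FRET biosensor (snurportin 1 IBB flanked by EYFP and cerulean), 50 nM, with compound 5 min, then 0.125 microM importin beta in PBS, 1 mM DTT, 0.02% Tween-20, 0.1% BSA. CFP/YFP ratio read after 45 min at room temperature; pre-read flags interference.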
Rango release inh – inhibition of RanGTP-driven Rango-importin beta dissociation; O95149+P62826; Biochemical FRET Rango-importin beta, RanGTP-induced dissociation; Potency, µM (titrated, usually from 46.1 µM), without a hit: at the top dose activity change, negative = inhibition; 340,000 tested, 0.071% active; AID 540253; active means falling FRET ratio curve, often poorly fitted, with flat reads before Ran was added; inconclusive means other falling curves, or compound fluorescence or quenching; inactive means flat or rising ratio curve;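 note: potency is the fitted concentration of half-maximal effect; % of control where 0% means no effect; nearly all actives have a fitted effect of over 45% in size; -100% = wells without RanGTP and RCC1; the record marks most hits as doubtful in a second field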
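Compounds preincubate 5 min with complex of recombinant Rango and importin beta in PBS with 1 mM DTT. Ran (0.6 uM) loaded with 2 mM GTP plus 0.2 uM RCC1 starts dissociation; FRET is recorded 45 min later.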
* marks the source's active call; other numbers are inactive results.

`O=c1c2ccccc2oc2cc(OCc3cccc(F)c3)cc(O)c12` gave miR-21 FLuc 3.8%, Rango-impB inh -2.6% and Rango release inh -10.0%.
Screening O=C(CSC1=NS(=O)(=O)c2cc(F)ccc2N1)NCc1ccccc1Cl returned Rango-impB inh 1.2% and Rango release inh -3.9%.
Screening O=[N+]([O-])c1ccc(N2CCCCC2)c(Cl)c1N1CCCCC1 returned GLA inh pH 4.5 -21.9, miR-21 FLuc -0.1%, Rango-impB inh 0.3% and Rango release inh 5.3%.
Cc1c(OCC(=O)NCCCN2CCOCC2)ccc2c1oc(=O)c1ccccc12 was read as miR-21 FLuc -4.0%, Rango-impB inh 2.9% and Rango release inh 1.5%.
NC(=O)C1CCCN(C(=O)c2ccc(NC(=O)c3cccs3)cc2)C1 (stereo not drawn) was read as Rango-impB inh 0.1% and Rango release inh 11.4%.
Screening Cc1cc(C)c(S(=O)(=O)NCC(=O)NCc2ccccn2)c(C)c1 returned GLA inh pH 4.5 -0.3, miR-21 FLuc -4.9%, Rango-impB inh -3.3% and Rango release inh 13.4%.
For CCOC(=O)/C=C/C(=O)Nc1ccc(Oc2ccccc2)cc1 the results were GLA inh pH 4.5 1.8, miR-21 FLuc 7.4%, Rango-impB inh 0.2% and Rango release inh 5.9%.
For COc1ccc(OC)c(NC(=O)COC(=O)CCCN2C(=O)c3ccccc3C2=O)c1 the results were GLA inh pH 4.5 -4.3, miR-21 FLuc 0.2%, Rango-impB inh -1.2% and Rango release inh 6.3%.
`COc1ccc(NC(=S)N2CCC(c3nc4ccccc4o3)CC2)c(OC)c1` gave GLA inh pH 4.5 -3.2, miR-21 FLuc -3.1%, Rango-impB inh 2.3% and Rango release inh 6.1%.
`Cc1nc2ncnn2c(C)c1Cc1cccc(C(F)(F)F)c1` gave GLA inh pH 4.5 -3.4, miR-21 FLuc -7.0%, Rango-impB inh 1.3% and Rango release inh 3.6%.
Screening CC(C)C(=O)Nc1cccc(C(=O)Nc2nnc(C(C)(C)C)s2)c1 returned GLA inh pH 4.5 1.9, miR-21 FLuc -30.9%, Rango-impB inh -4.6% and Rango release inh -4.6%.
`COc1ccc(CN2CCNC(=O)C2CC(=O)N(C)C2CCOCC2)c(F)c1` (stereo not drawn) gave miR-21 FLuc -2.5%, Rango-impB inh inconclusive and Rango release inh 2.4%.
For CC(Oc1cccc(Cl)c1)C(=O)Nc1cc(S(=O)(=O)N2CCCCC2)ccc1N1CCOCC1 (stereo not drawn) the results were Rango-impB inh -1.5% and Rango release inh -11.9%.
Screening COc1ccc2oc(C(F)(F)C(F)(F)F)cc(=O)c2c1 returned GLA inh pH 4.5 4.2, miR-21 FLuc -1.6%, Rango-impB inh -1.6% and Rango release inh -5.1%.
Screening Cc1ccc(NC(=O)Cc2ccc(-c3ccccc3)cc2)nc1 returned miR-21 FLuc 0.2%, Rango-impB inh 1.2% and Rango release inh -11.9%.
`CCc1ccc2[nH]c(=O)c(C(c3nnnn3CCOC)N3CCN(c4ccccc4F)CC3)cc2c1` (stereo not drawn) gave GLA inh pH 4.5 2.6, miR-21 FLuc -9.6%, Rango-impB inh 2.9% and Rango release inh 9.2%.
COC(=O)c1cc(C(=O)OC)cc(N2C(=O)CC(NNC(=O)c3ccccc3Cl)C2=O)c1 (stereo not drawn) was read as GLA inh pH 4.5 5.2, miR-21 FLuc -4.0%, Rango-impB inh 3.8% and Rango release inh -2.7%.
Screening C=CC[C@H](CC(=O)OC(C)(C)C)C(=O)OC[C@H]1CCCN1C(=O)[C@H](CC=C)CC(=O)N(CCO)Cc1ccccc1 returned Rango-impB inh -2.5% and Rango release inh 3.0%.
For O=C(CCc1nnc2ccc(NCc3ccccc3Cl)nn12)NC1CCCC1 the results were miR-21 FLuc -6.1%, Rango-impB inh -2.6% and Rango release inh 14.7%.
For CC(C)c1cc(C(=O)N/N=C/c2ccco2)n[nH]1 the results were GLA inh pH 4.5 -7.3, miR-21 FLuc -49.4%, Rango-impB inh 0.2% and Rango release inh 0.3%.
For O=C(CN(Cc1ccc2c(c1)OCO2)C(=O)c1cnsn1)NC1CCCC1 the results were GLA inh pH 4.5 4.5, miR-21 FLuc -2.2%, Rango-impB inh 0.7% and Rango release inh -6.3%.
`O=C(CCC(=O)Nc1nnc(C2CCCCC2)s1)NCc1cccs1` gave GLA inh pH 4.5 4.2, miR-21 FLuc -6.3%, Rango-impB inh 10.0% and Rango release inh -11.8%.
`O=C(Nc1nnc(-c2cccs2)o1)c1ccco1` gave GLA inh pH 4.5 1.5, miR-21 FLuc -9.7%, Rango-impB inh -2.2% and Rango release inh -10.6%.
Screening COc1ccc(/C(C)=N/NC(=O)c2nnn(-c3nonc3N)c2CN(C)c2ccccc2)cc1 returned miR-21 FLuc -3.8%, Rango-impB inh -0.1% and Rango release inh -3.2%.
CC(=O)c1ccc(NC(=O)c2ccc(COc3ccccc3[N+](=O)[O-])o2)cc1 was read as GLA inh pH 4.5 0.4, miR-21 FLuc -17.6%, Rango-impB inh 0.8% and Rango release inh -18.6%.
COc1ccccc1OCC(=O)NNC(=S)NC(=O)c1ccco1 was read as GLA inh pH 4.5 -3.2, miR-21 FLuc 1.4%, Rango-impB inh 3.5% and Rango release inh 4.9%.
`O=C(CCCCCNS(=O)(=O)c1ccc(Br)cc1)NCCN1CCOCC1` gave GLA inh pH 4.5 5.4, miR-21 FLuc -4.6%, Rango-impB inh -0.2% and Rango release inh 3.8%.
`O=C(CSc1ccsc1[N+](=O)[O-])N1CCN(c2ccccc2)CC1` gave GLA inh pH 4.5 1.3, miR-21 FLuc -9.3%, Rango-impB inh -0.1% and Rango release inh 23.7%.
Screening NC(=O)c1ccc[n+](Cc2ccccc2)c1 returned GLA inh pH 4.5 -3.3, miR-21 FLuc -4.2%, Rango-impB inh 0.3% and Rango release inh 20.9%.
`CC(C)Cn1c(=O)c2ccccc2n2c(CCC(=O)NCc3ccccn3)nnc12` gave miR-21 FLuc 3.4%, Rango-impB inh 3.4% and Rango release inh 9.3%.
COCCNC(=O)CSc1nc2ccccc2c(=O)n1CCC(=O)N1CCN(c2ccccc2)CC1 was read as GLA inh pH 4.5 -6.6, miR-21 FLuc -2.6%, Rango-impB inh 5.4% and Rango release inh -19.5%.
`CCC(=O)N/C(N)=N/c1nc(C)c2cc(OC)ccc2n1` gave GLA inh pH 4.5 2.3, miR-21 FLuc -28.5%, Rango-impB inh 1.8% and Rango release inh 1.5%.
For COc1cccc(NC(=O)Cn2c(=O)oc3ccccc32)c1 the results were GLA inh pH 4.5 -5.5, miR-21 FLuc -1.3%, Rango-impB inh 4.8% and Rango release inh -1.3%.
Clc1ccccc1COc1ccc(/C=N/n2cnnc2)cc1 was read as GLA inh pH 4.5 -0.6, miR-21 FLuc -14.6%, Rango-impB inh -1.9% and Rango release inh 13.7%.
Screening COc1ccc(/C(C)=N/NC(=O)c2ccc(N(C)C)cc2)cc1 returned GLA inh pH 4.5 -12.8, miR-21 FLuc -38.3%, Rango-impB inh -1.6% and Rango release inh 14.5%.
For NC(=O)CSc1nnc(-c2cccc(S(=O)(=O)N3CCCCC3)c2)o1 the results were GLA inh pH 4.5 -0.1, miR-21 FLuc -19.6%, Rango-impB inh 1.2% and Rango release inh -3.7%.

The closing 3 compounds of the section above lead into the next:
Clc1ccccc1COc1ccc(/C=N/n2cnnc2)cc1 was read as GLA inh pH 4.5 -0.6, miR-21 FLuc -14.6%, Rango-impB inh -1.9% and Rango release inh 13.7%.
Screening COc1ccc(/C(C)=N/NC(=O)c2ccc(N(C)C)cc2)cc1 returned GLA inh pH 4.5 -12.8, miR-21 FLuc -38.3%, Rango-impB inh -1.6% and Rango release inh 14.5%.
For NC(=O)CSc1nnc(-c2cccc(S(=O)(=O)N3CCCCC3)c2)o1 the results were GLA inh pH 4.5 -0.1, miR-21 FLuc -19.6%, Rango-impB inh 1.2% and Rango release inh -3.7%.
Screening CC1(C)CC(CC(=O)O)(c2ccccc2)CCO1 (stereo not drawn) returned GLA inh pH 4.5 -3.5, miR-21 FLuc -2.9%, Rango-impB inh 1.6% and Rango release inh 8.4%.
For CCNC(=O)/C(C#N)=C/c1c(N2CCN(Cc3ccc4c(c3)OCO4)CC2)nc2c(C)cccn2c1=O the results were GLA inh pH 4.5 9.7, miR-21 FLuc -3.4%, Rango-impB inh -2.5% and Rango release inh 6.0%.
For O=C(NCc1ccccc1F)C1CCN(C(=O)Nc2ccc(F)cc2)CC1 the results were miR-21 FLuc -0.3%, Rango-impB inh -2.7% and Rango release inh -24.8%.
For O=C(NCc1cccnc1)c1ccc2c(c1)N(Cc1ccccc1)CCS2 the results were GLA inh pH 4.5 15.7, miR-21 FLuc 10.2%, Rango-impB inh -1.3% and Rango release inh -6.4%.
Screening CCO[C@@H]1OC(C(N)=O)=C[C@H](c2ccc(Br)cc2)[C@H]1CCCO returned GLA inh pH 4.5 -5.3, miR-21 FLuc -1.3%, Rango-impB inh -2.0% and Rango release inh -25.3%.
Fc1c(F)c(F)c(/C=N/NC(=S)Nc2cccnc2)c(F)c1F was read as GLA inh pH 4.5 0.3, miR-21 FLuc 15.6%, Rango-impB inh -1.3% and Rango release inh 2.8%.
`CC1(C)CC(=O)C=C(Nc2ccccc2F)C1` gave GLA inh pH 4.5 7.0, miR-21 FLuc 0.9%, Rango-impB inh 0.0% and Rango release inh -20.3%.
Screening COc1ccccc1NC(=O)COc1ccccc1C(=O)Nc1ccccc1 returned GLA inh pH 4.5 0.0, miR-21 FLuc 6.2%, Rango-impB inh -2.3% and Rango release inh 18.5%.
For O=C(O)COc1ccccc1/C=N/NC(=O)Cc1csc(Nc2cccc(C(F)(F)F)c2)n1 the results were GLA inh pH 4.5 -4.0, miR-21 FLuc 2.3%, Rango-impB inh 0.6% and Rango release inh -3.5%.
Screening COc1ccccc1CNC(=O)C(CCSC)NS(=O)(=O)c1ccc2c(c1)oc(=O)n2C (stereo not drawn) returned GLA inh pH 4.5 5.6, miR-21 FLuc -1.2%, Rango-impB inh 3.2% and Rango release inh 0.0%.
Screening O=S(=O)(Nc1nc2ccccc2nc1NCC1CCCO1)c1ccc(F)cc1 (stereo not drawn) returned GLA inh pH 4.5 0.6, miR-21 FLuc -3.5%, Rango-impB inh 3.0% and Rango release inh 8.7%.
For CC(C)c1ccccc1OCC(=O)NCC(c1cccs1)N1CCOCC1 (stereo not drawn) the results were GLA inh pH 4.5 -13.1, miR-21 FLuc 16.0%, Rango-impB inh 1.1% and Rango release inh 11.9%.
Cc1cc(C)nc(SCC(=O)c2ccc3c(c2)OCCO3)n1 was read as GLA inh pH 4.5 7.6, miR-21 FLuc -33.7%, Rango-impB inh -2.4% and Rango release inh -24.3%.
O=[N+]([O-])c1cccnc1NCCc1c[nH]c2ccccc12 was read as miR-21 FLuc -73.8%, Rango-impB inh 1.7% and Rango release inh 6.5%.
COC(=O)c1cc(NC(=O)c2cc(C)oc2C)cc(C(=O)OC)c1 was read as GLA inh pH 4.5 -3.4, miR-21 FLuc -3.0%, Rango-impB inh inconclusive and Rango release inh 0.1%.
COCCCNC(CC(=O)Nc1cc(C)cc(C)c1)C(=O)O (stereo not drawn) was read as Rango-impB inh 6.8% and Rango release inh 0.3%.
O=C(NCCCN1CCN(CCCNC(=O)c2cccc(Cl)c2)CC1)c1cccc(Cl)c1 was read as GLA inh pH 4.5 -4.9, miR-21 FLuc -4.2%, Rango-impB inh -3.3% and Rango release inh 5.7%.
CC(=O)Nc1ccc(S(=O)(=O)NC2CCCCCC2)cc1 was read as miR-21 FLuc -7.8%, Rango-impB inh -1.2% and Rango release inh 8.7%.
Screening O=C1CC2(CCN(C(=O)COc3ccccc3)CC2)Oc2ccccc21 returned Rango-impB inh -1.1% and Rango release inh -2.0%.
Screening COc1cc(OC)cc(C(=O)NNC(=S)NC2CC2)c1 returned GLA inh pH 4.5 -3.8, miR-21 FLuc -4.5%, Rango-impB inh -4.0% and Rango release inh -2.4%.
`COc1ccc(CC(NC(C)=O)C(=O)NC2CCN(c3nc(C)cc(C)c3C#N)CC2)c(OC)c1` (stereo not drawn) gave GLA inh pH 4.5 7.8, miR-21 FLuc -11.9%, Rango-impB inh inconclusive and Rango release inh -21.4%.

Some of the compounds tested, so the mix of outcomes need not match the whole.
